# Bioassay records deposited in PubChem BioAssay by National Center for Advancing Translational Sciences (NCATS).
# Lassa entry inh – qHTS for Inhibitors of binding or entry into cells for Lassa Virus; Lassa virus pseudotype entry inhibition, cell reporter; control for the full effect not named in the record; Potency, µM (highest dose often 37.9 µM), without a hit: at the highest dose activity change, negative = inhibition, actives largely listed as inhibitors; 300,000 compounds, 1.2% hits; AID 540256, 2011; active means well fitted inhibition curve with a large enough effect; inconclusive means small, poorly fitted or top-dose-only effect, or effect the other way; inactive means flat fitted curve, though single readings scatter; tested in HEK293 cells; also: % is scaled to controls: 0 for no effect and ±100 for the full control effect; nearly all actives have a fitted effect of over 50% in size; luciferase read-out
# Cruzain inh Det – qHTS Assay for Promiscuous and Specific Inhibitors of Cruzain (with detergent). Cruzipain (Trypanosoma cruzi), P25779. purified cruzain, Z-FR-AMC fluorescence, 0.01% Triton. Potency, µM, inactives show max response, negative = inhibition, actives largely listed as inhibitors. 200,000 compounds, 0.43% hits. AID 1478, 2009;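 also: plate controls were neutral wells for no effect and buffer without enzyme for full effect; nearly all actives have a fitted effect of over 40% in size; top concentration of the series not given in the record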
# Target sequence (P25779 123-467 limits assumed): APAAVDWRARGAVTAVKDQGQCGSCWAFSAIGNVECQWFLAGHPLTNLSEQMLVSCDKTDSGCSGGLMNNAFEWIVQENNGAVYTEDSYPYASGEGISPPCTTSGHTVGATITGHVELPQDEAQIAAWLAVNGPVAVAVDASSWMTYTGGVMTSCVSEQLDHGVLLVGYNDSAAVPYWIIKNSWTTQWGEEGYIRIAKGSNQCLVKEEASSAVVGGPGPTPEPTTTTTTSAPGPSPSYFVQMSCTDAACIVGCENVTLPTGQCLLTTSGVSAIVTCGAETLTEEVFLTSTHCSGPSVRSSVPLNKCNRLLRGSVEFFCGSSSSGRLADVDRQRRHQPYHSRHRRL
#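 Detergent-containing run (0.01% Triton X-100) in acetate buffer pH 5.5 with 5 mM DTT: enzyme at 1.5 nM final, 15 min compound preincubation at room temperature, then 2 uM Z-FR-AMC substrate. Activity taken as 60 s fluorescence increase at 360/450 nm.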
# Cruzain inh noDet – qHTS Assay for Promiscuous and Specific Inhibitors of Cruzain (without detergent); Cruzipain (Trypanosoma cruzi), P25779; purified cruzain, Z-FR-AMC fluorescence, no detergent; Potency, µM, inactives show max response, negative = inhibition, usual class: inhibitors; 200,000 compounds, 2.3% hits;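 also: plate controls were enzyme without inhibitor for no effect and buffer without enzyme for full effect; nearly all actives have a fitted effect of over 40% in size; top concentration of the series not given in the record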
#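 Purified cruzain at 1.5 nM, pre-incubated 15 min with compound at room temperature in 100 mM sodium acetate pH 5.5, 5 mM DTT, 0.00005% Triton X-100. Reaction started with 2 uM Z-FR-AMC; AMC fluorescence increase over 60 s gives rate.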
# Marburg entry inh – qHTS for inhibitors of binding or entry into cells for Marburg Virus; Marburg virus pseudotyped entry inhibition, cell reporter; control for the full effect not named in the record; about a third of the inactives were read at about 46 µM; Potency, µM (doses to about 37.8 µM), inactives show at the highest dose activity change, negative = inhibition, actives largely listed as inhibitors; 300,000 compounds, 1.8% hits; active = well fitted inhibition curve with a large enough effect; inconclusive = small, poorly fitted or top-dose-only effect, or effect the other way; inactive = flat fitted curve, though single readings scatter; tested in HEK293 cells; about a fifth of its hits are not listed in these tables; also: % is scaled to controls: 0 for no effect and ±100 for the full control effect; luciferase read-out
# SARS PLP yeast – qHTS of Yeast-based Assay for SARS-CoV PLP; S. cerevisiae expressing SARS-CoV PLpro, growth rescue; control for the full effect not named in the record; Potency, µM (highest dose often 32.9 µM), inactives show top-dose activity, positive = growth rescue; 330,000 compounds, 0.19% hits; active means well fitted rising curve with a large enough effect; inconclusive means small, poorly fitted or top-dose-only effect; inactive means no such curve, though single readings can be large or run the other way; also: 0% is about no effect; nearly all actives have a fitted effect of over 55% in size; growth read by luminescence after 48 h
# StopGo reporter – High Throughput Screening for Foot and Mouth Disease Virus Antivirals | human cells with a luciferase reporter of 2A StopGo recoding; control for the full effect not named in the record | Potency, µM (top dose mostly 57.9 µM), for inactives: top-dose signal change, negative = less light | 410,000 compounds, 1.2% hits; active = well fitted falling curve with a large enough effect; inconclusive = small, poorly fitted or top-dose-only effect; inactive = no such curve, though single readings can be large or run the other way; tested in HEK293T cells; also: % is scaled to controls: 0 for no effect and ±100 for the full control effect; nearly all actives have a fitted effect of over 45% in size; luciferase light after 4 h
# NS1 function inh – qHTS Assay for Inhibitors of Influenza NS1 Protein Function; AID 2326, 2010; 270,000 compounds, 0.4% hits; Potency, µM (doses to about 46.1 µM), inactives show at the highest dose activity, positive = more growth; S. cerevisiae slowed by influenza A NS1, growth recovery by OD600; active means well fitted rising curve with a large enough effect; inconclusive means small, poorly fitted or top-dose-only effect; inactive means no such curve, though single readings can be large or run the other way; also: nearly all actives have a fitted effect of over 50% in size
#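 S. cerevisiae expressing influenza A NS1, grown in glucose, washed, then diluted 1:100 into pH 6.0 -URA galactose medium with 23 nl compound. Growth recovery read as OD600; NS1-free strain serves as control.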
# RE007 growth inh – qHTS Assay for Inhibitors of the HIV-1 protein Vpr | 360,000 compounds, 0.21% hits | S. pombe RE007 Vpr strain, BacTiter-Glo ATP luminescence, 24 h; control for the full effect not named in the record | AID 651644, 2012 | Potency, µM (doses to about 92.2 µM), for the others: top-dose activity change, negative = less growth; active = well fitted falling curve with a large enough effect; inconclusive = small, poorly fitted or top-dose-only effect; inactive = no such curve, though single readings can be large or run the other way;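 also: % is scaled to controls: 0 for no effect and ±100 for the full control effect; nearly all actives have a fitted effect of over 50% in size; the assay follows cell death caused by Vpr and the record does not say whether a fall means rescue or toxicity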
#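 Fission yeast RE007 carrying one integrated HIV-1 vpr copy, seeded at OD 0.01 in PMG+AL medium with 23 nL pinned compound. Grown 24 h at 30 degrees; viability read by BacTiter-Glo luminescence after 5 min.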
# * hit, by the source's call; ? = inconclusive; . = no result given; [ ] = another dose, or the depositor's remark. Unless noted, calls follow the shape of the dose curve; as a rule, active = well fitted curve in the direction sought with a large enough effect; inconclusive = small, poorly fitted or top-dose-only effect, or another doubt; inactive = no such curve, though single readings can be large; an effect the other way counts as inactive or inconclusive. Potency is read from the fitted curve at half-maximal effect.
SMILES,Lassa entry inh,Cruzain inh Det,Cruzain inh noDet,Marburg entry inh,SARS PLP yeast,StopGo reporter,NS1 function inh,RE007 growth inh
Cc1nc(CS(=O)(=O)c2ccccc2)cc(Sc2ccc(Cl)cc2)n1,-3.9%,-2.2%,15.6%,0.4%,0.4%,-12.4%,-8.7%,-8.8%
C=CCn1c(/N=C/c2ccc(N(C)C)cc2)nc2ccccc21,6.1%,-14.4%,-4.0%,?,-0.9%,13.8%,-46.9%,2.7%
O=C(O)c1cccc(NC(=O)C2C3C=CC(C3)C2C(=O)O)c1 (configuration not stated),18.9%,3.0%,10.8%,6.7%,-1.4%,-7.8%,1.9%,?
O=C(N1CCN(Cc2ccccc2)CC1)C12CC3CC(CC(C3)C1)C2,?,-4.4%,-2.6%,?,-0.1%,-10.2%,-10.4%,-8.9%
CCCN1C(=O)SC(CC(=O)Nc2ccccc2)C1=O (configuration not stated),0.3%,1.8%,1.5%,-26.4%,14.1%,2.4%,-103.8%,2.6%
CC(=O)c1ccc(NC(=O)CSc2nnc(-c3ccco3)c(-c3ccco3)n2)cc1,-10.9%[46.1 µM],.,.,?,0.5%,11.1%,-3.7%,3.9%
CC(C)(CC(=O)N1CCN(c2ccc(Cl)cc2)CC1)CC1=NS(=O)(=O)c2ccccc2N1,11.2µM*,0.6%,?,?,7.4%,0.0%,-41.8%,5.3%
CCOC(=O)COc1cnc2ccccc2n1,8.4%,.,.,-3.7%[46.1 µM],2.0%,7.1%,5.0%,0.9%
O=C(Nc1ccccc1Cl)c1ccc2nccnc2c1,?,.,.,?,11.0%,0.0%,-3.1%,-17.4%
CCOC(=O)COc1ccc(/C=C/[N+](=O)[O-])c(OCC(=O)OCC)c1,20.6µM*,-0.7%,7.1%,5.17µM*,-19.2%,14.1µM*,-99.1%,12.9%
O=C(NCc1ccccn1)C1C2C=CC(C2)C1C(=O)Nc1ccc(F)cc1 (configuration not stated),-11.8%,-0.5%,12.0%,13.0%,-23.5%,-17.7%,19.3%,5.7%
Cc1cccc(NC(=O)CN(CCc2ccccc2)S(C)(=O)=O)c1,.,.,.,.,-0.4%,-12.3%,-6.7%,-13.7%
Cc1cc(=O)oc2c(C)c(OC(C)C(=O)NCC(O)c3ccccc3)ccc12 (configuration not stated),.,.,.,.,-0.6%,2.9%,-9.3%,10.3%
COc1ccc(CNC(=O)c2oc3ccc(S(=O)(=O)N4CCOCC4)cc3c2C)cc1,.,.,.,?,-1.2%,?,9.3%,-5.4%
Cc1ccccc1OCc1nc2ccccc2[nH]1,?,.,.,?,-3.5%,56.5%[activator],-5.9%,?
Cc1ccccc1OCC(O)CN(Cc1ccccc1O)C1CCCCC1 (configuration not stated),-16.3%[46.1 µM],.,.,11.2µM*,1.0%,23.7%,.,5.1%
CC1(C)CC(C(CC(=O)Nc2nccs2)c2ccccc2)CCO1 (configuration not stated),.,2.5%,6.0%,5.4%,1.2%,?,-12.1%,20.2%
O=[N+]([O-])c1ccc2nc(NS(=O)(=O)c3ccc(Cl)cc3)sc2c1,14.2%,.,.,-17.3%,-1.3%,43.8%[activator],?,8.9%
CCOC(=O)c1c(NC(=O)/C=C/c2ccc(C)o2)sc(C)c1C,1.1%,?,-25.9%,16.4%,-0.5%,.,4.7%,-25.7%
O=C(NCc1ccc(Cl)cc1)c1cc(-c2ccco2)on1,12.8%,0.3%,?,16.7%,-3.1%,35.2%[activator],-2.9%,-19.6%
CC(C)=CCOc1ccc2ccc(=O)oc2c1,.,.,.,.,-1.8%,20.9%,-6.3%,-16.2%
COc1ccccc1C(=O)Nc1ccnn1C1CCN(C(C)CSC)CC1 (configuration not stated),.,.,.,.,0.3%,5.7%,3.0%,1.8%
CCCCC(CC)COCCCN=Cc1c(O)[nH]c(=S)[nH]c1=O (configuration not stated),.,.,.,.,-0.2%,?,-30.3%,-7.5%
Cc1cccc(NC(=O)c2ccccc2NC(=O)CCC(=O)O)c1,-5.8%,-1.5%,8.5%,?,5.0%,8.6%,0.1%,.
Cc1cc2c(cc1S(=O)(=O)N1CCN(c3ccccc3F)CC1)OCC(=O)N2,1.9%,.,.,-10.0%,20.0%,-4.7%,18.7%,3.9%

# The list goes on:
SMILES,Lassa entry inh,Cruzain inh Det,Cruzain inh noDet,Marburg entry inh,SARS PLP yeast,StopGo reporter,NS1 function inh,RE007 growth inh
COc1cc(C(=O)NCCOc2ccc(F)cc2)c(Br)c(OC)c1OC,?,.,.,?,-0.3%,-15.6%,.,14.9%
CCOC(=O)C1=C(C)N=c2s/c(=C/c3ccc(OCC(=O)O)c(OC)c3)c(=O)n2C1c1ccc(Cl)cc1 (configuration not stated),16.2%,.,.,-3.7%,.,0.0%,.,-21.8%
COc1cc(C)ccc1OCc1cc(C(=O)NCCN2CCCC(O)C2)no1 (configuration not stated),7.8%,.,.,-6.8%,2.8%,6.7%,3.5%,?
COc1ccc(S(=O)(=O)N2CCN(C(=S)NCCc3ccccc3)CC2)cc1,-13.0%,.,.,?,-8.6%,13.5%,-4.5%,-1.1%
Cc1ccc(S(=O)(=O)Nc2cccc(NC(=O)CN3CCCCC3)c2)cc1,1.8%,-0.7%,0.8%,?,2.3%,-2.3%,0.8%,14.8%
CC1=CC(C)(C)N(S(=O)(=O)c2ccc(C)cc2)c2ccc(C)cc21,-21.3%,-5.0%,-10.9%,?,-28.3%,.,-70.9%,-5.0%
Cc1cc2ccccc2c(=O)n1CC(=O)NC1CCCCCC1,-1.4%,1.2%,3.4%,?,0.8%,-9.9%,0.0%,-4.6%
Cc1ccnc(NS(=O)(=O)c2ccc(NC(=O)C3CCCNC3=O)cc2)n1 (configuration not stated),0.4%,3.8%,-0.7%,4.2%,0.9%,5.2%,1.3%,0.5%
Cc1cccc(NC(=O)CSc2nnc(-c3n[nH]c4ccccc34)o2)c1,3.9%,1.3%,0.3%,13.6%,-2.1%,-16.9%,1.2%,16.9%
O=C(COC(=O)CNC(=O)c1ccco1)NCCN1C(=O)CSC1=O,5.1%,4.0%,-9.6%,19.5%,-2.5%,8.0%,1.9%,1.4%
O=C(NC1CCSc2ccccc21)c1cc([N+](=O)[O-])ccc1N1CCOCC1 (configuration not stated),-4.5%[46.1 µM],.,.,2.6%,-3.0%,19.3%,.,-18.9%
COc1ccc(CNC(=O)c2cc3c(s2)-c2ccccc2OC3)cc1,.,3.1%,16.2%,10µM*,.,13.2%,.,.
Cc1ccc2nc(COc3ccccc3NC(=O)C(C)(C)C)cc(=O)n2c1,-0.7%[46.1 µM],5.3%,-3.7%,.,.,-19.5%,.,.
O=C1CC(NCC2CCCO2)C(=O)N1c1ccc(Cl)cc1 (configuration not stated),.,.,.,.,-4.0%,-15.2%,-0.7%,-20.6%
N#Cc1ccc(C(=O)N2CCN(c3ncccn3)CC2)cc1,-6.4%,.,.,?,0.4%,-8.5%,3.9%,8.7%
COC(=O)c1noc(-c2ccc(OC)cc2)n1,-8.4%,0.9%,0.0%,2.6%,-7.3%,-8.8%,.,-8.7%
Cc1cc2occ(CC(=O)NNC(=O)c3ccccc3F)c2cc1C,24.0%[46.1 µM],.,.,8.3%[46.1 µM],-17.1%,4.3%,-1.3%,-5.9%
O=C1NCN(C2CCCCC2)CN1,-8.3%[46.1 µM],.,.,1.7%[46.1 µM],.,-5.9%,.,-3.3%
CCN(CC(=O)NC1CCS(=O)(=O)C1)S(=O)(=O)c1cccc(C(C)=O)c1 (configuration not stated),9.6%,.,.,13.5%[46.1 µM],-5.3%,-3.8%,.,-5.8%
CCOc1ccccc1CNc1nc2nc(C)c(CC(=O)OC)c(=O)n2[nH]1,-8.2%[46.1 µM],-1.4%,-14.8%,-4.9%[46.1 µM],.,5.9%,.,.
CC(C)Cc1ccc(CN2CCCC(NC(=O)CCN3CCCCC3=O)C2)cc1 (configuration not stated),.,.,.,.,1.0%,-8.4%,3.0%,8.1%
COC(=O)c1sc2ccccc2c1NC(=O)c1cccs1,3.6%,-5.5%,2.4%,-5.6%,-14.5%,.,-14.4%,8.6%
COc1cccc(NC(=O)c2ccc(CNS(=O)(=O)c3ccc4c(c3)C(C)(C)C(=O)N4C)cc2)c1,?,-2.7%,6.8%,.,.,?,.,.
COc1ccc(S(=O)(=O)NCC(c2ccc3c(c2)OCO3)N2CCN(c3ccccc3)CC2)cc1 (configuration not stated),?,.,.,?,2.7%,2.4%,.,-2.6%
CC1CCN(CC(=O)n2c3c(c4ccccc42)CCCC3)CC1,?,5.2%,-2.1%,?,-12.9%,.,4.4%,9.3%

# Continued:
SMILES,Lassa entry inh,Cruzain inh Det,Cruzain inh noDet,Marburg entry inh,SARS PLP yeast,StopGo reporter,NS1 function inh,RE007 growth inh
N/C(=N\OC(=O)COc1ccc2ccccc2c1)c1ccncc1,.,.,.,.,-3.8%,6.9%,-2.3%,-7.9%
COc1cc([N+](=O)[O-])ccc1NC(=O)CSc1nccn1C,?,.,.,?,0.9%,9.8%,0.1%,-8.4%
COC(=O)c1ccccc1NC(=S)NC(=O)c1ccccc1,3.0%,-0.2%,-11.9%,-3.3%,-34.6%,0.0%,-7.7%,-3.0%
C/C(=N/NS(=O)(=O)c1ccc(C)c(C)c1)c1ccncc1,.,.,.,.,13.6%,23.6%,17.5%,-3.4%
O=c1c(Cl)c2oc3ccccc3nc-2c2ccccc12,-16.1%[46.1 µM],.,.,?,-0.3%,-8.1%,-0.2%,-21.7%
O=C(Nc1cc(Cl)ccc1-n1cncn1)c1ccc([N+](=O)[O-])o1,-13.1%,.,.,?,1.5%,-14.5%,.,-21.5%
